Screening data (PubChem BioAssay)
HNF4A DNA FP = change in binding of human HNF4A to DNA, primary screen, biochemical, fluorescence polarization, FITC-DNA; Hepatocyte nuclear factor 4-alpha (Homo sapiens), P41235; 1 h; activity change, % at 10 µM; actives 0.3% (n = 360,000); AID 1224865, 2016; in the data active = activity change above about 30%, passing the limit was not always enough;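 note: controls were the assay level and a saturating level of protein; the project sought stronger binding though the title names inhibitors; some compounds called inactive have numbers as strong as hits; positive values seem to mean higher polarization but the record does not say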
Target sequence (P41235 whole entry, looked up): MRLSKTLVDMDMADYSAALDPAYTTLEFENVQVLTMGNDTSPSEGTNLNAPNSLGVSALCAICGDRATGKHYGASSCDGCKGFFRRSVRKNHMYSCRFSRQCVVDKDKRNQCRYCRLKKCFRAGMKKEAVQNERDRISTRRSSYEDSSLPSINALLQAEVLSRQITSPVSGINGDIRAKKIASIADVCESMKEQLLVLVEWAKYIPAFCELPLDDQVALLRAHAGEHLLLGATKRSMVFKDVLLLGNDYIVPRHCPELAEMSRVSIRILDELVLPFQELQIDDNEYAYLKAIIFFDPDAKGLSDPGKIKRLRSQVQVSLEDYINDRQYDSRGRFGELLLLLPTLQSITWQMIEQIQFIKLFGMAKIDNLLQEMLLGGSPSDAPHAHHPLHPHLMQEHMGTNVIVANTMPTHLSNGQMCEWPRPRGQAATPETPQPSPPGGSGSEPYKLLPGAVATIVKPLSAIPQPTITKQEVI
ALR inh = inhibitors of human ALR sulfhydryl oxidase, primary screen, biochemical, H2O2 detection, HRP-luminol luminescence, single point; FAD-linked sulfhydryl oxidase ALR (Homo sapiens), P55789; purified ALR, DTT oxidation; inhibition, % (no concentration beside the values); actives 3.8% (n = 290,000);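 active = mean and each replicate at 75% or more; inconclusive = only one of the two met; inactive = neither met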;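 note: stock transfer was 7.5 nL into about 7.5 µL; 0% = neutral wells and 100% = wells with inactivated enzyme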
Target sequence (P55789 whole entry, looked up): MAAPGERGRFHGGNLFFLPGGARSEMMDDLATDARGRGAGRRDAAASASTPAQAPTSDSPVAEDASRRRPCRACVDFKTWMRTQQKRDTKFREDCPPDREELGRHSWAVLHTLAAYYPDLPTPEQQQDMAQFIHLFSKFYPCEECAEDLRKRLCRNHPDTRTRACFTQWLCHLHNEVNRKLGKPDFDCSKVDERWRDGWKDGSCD
RanGTP-Imp inh = inhibitors of RanGTP-importin-beta interaction, primary screen, biochemical, FRET, CFP-Ran, YFP-importin-beta, homogeneous; actives 1.1% (n = 300,000); inhibition, % (concentration not given with the values); AID 2216, 2009; cell-free CFP-Ran/YFP-importin-beta FRET ratio; Ran GTPase (GTP-bound) - importin-beta complex;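 active = most replicates above 15%; inconclusive = exactly half above 15%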;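 note: 0% = DMSO wells and 100% = Ran loaded with GDP instead of GTP; wells of about 40 µL received 100 nL stock; the first replicate is given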
Vif A3G = inhibitors of Vif binding to APOBEC3G peptide, primary screen, biochemical, TR-FRET, GST-Vif 1-94, biotin-A3G peptide, dose response retest (AID 1117319). Virion infectivity factor (Human immunodeficiency virus type 1 group M subtype B (isolate …. TR-FRET GST-Vif / biotin-A3G peptide binding; higher % means a stronger effect; test concentration not given here; strong numbers were not always called active. inhibition, %, or IC50 in µM where a hit was titrated. actives 0.57% (n = 260,000);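 active = above the screen mean plus three standard deviations and confirmed in dose response; inconclusive = results disagree or hit not tested in dose response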;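 note: Vif residues 1-94 fused to GST binding biotinylated APOBEC3G peptide 110-148; 0% = full assay without inhibitor and 100% = GST in place of GST-Vif; retest series ran down from 100 µM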
B2AR ag = beta2AR agonists driving receptor internalization, primary screen, cell-based, FAP fluorogen, flow cytometry. Beta-2 adrenergic receptor (Homo sapiens), P07550. response, % (test concentration not listed). actives 0.43% (n = 340,000). Am2.2-beta2AR cells; reference of the scale not given here;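 active = response above a set limit, near 3 SD of response in nonfluorescent compounds, cut at about 42% in these data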;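 note: stock transfer was 100 nL into about 11 µL; a reference agonist was the positive control; negative values mostly stem from fluorescent compounds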
Target sequence (P07550 whole entry, looked up): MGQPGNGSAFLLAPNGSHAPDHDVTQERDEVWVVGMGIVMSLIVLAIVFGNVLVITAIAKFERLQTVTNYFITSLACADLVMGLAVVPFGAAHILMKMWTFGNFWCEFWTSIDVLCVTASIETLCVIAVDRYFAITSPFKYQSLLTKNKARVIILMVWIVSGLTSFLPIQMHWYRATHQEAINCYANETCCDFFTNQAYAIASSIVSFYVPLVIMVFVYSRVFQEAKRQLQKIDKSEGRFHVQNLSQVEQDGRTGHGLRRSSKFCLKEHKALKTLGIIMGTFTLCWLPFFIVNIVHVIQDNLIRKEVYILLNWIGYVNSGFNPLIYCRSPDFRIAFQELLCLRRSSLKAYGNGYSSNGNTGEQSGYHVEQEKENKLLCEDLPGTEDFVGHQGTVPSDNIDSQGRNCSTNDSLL
Calb FLC = C. albicans growth inhibition with fluconazole, primary screen, CaCi-2 strain, Alamar Blue fluorescence; actives 0.57% (n = 300,000); growth inhibition, % (concentration not given with the values); AID 1979, 2009; C. albicans CaCi-2 (fluconazole-resistant clinical isolate) + fluconazole, 48 h;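 active = most replicates above 75%; inconclusive = exactly half above 75%; inactive = most below 75%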;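 note: all wells also contain fluconazole at 8 µg/ml as a sub-toxic cotreatment; 0% = median of DMSO wells and 100% = median of geldanamycin control wells; wells of about 8 µL received 7.5 nL stock; the first replicate is given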
LANA-H2B inh = blockers of LANA interaction with H2A/H2B – biochemical, FP readout, HTS, primary screen | Protein LANA1 (Human herpesvirus 8 type P (isolate GK18)), Q9QR71 | actives 0.6% (n = 320,000) | cell-free LANA-H2A/H2B peptide, fluorescence polarization | inhibition, % (no concentration beside the values) | AID 2629, 2010; in the data active = inhibition mostly above about 10%, no sharp cut-off; inactive = mostly below about 6.7%;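 note: stock transfer was 7.5 nL into about 10 µL; 0% = median of vehicle wells and 100% = median of positive control wells; one replicate is shown; the record names a cut of 25% in any replicate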
Starred values were filed as active, the others as inactive; ? = inconclusive; . = no result given. The order is random (roughly 6.3% active in at least one column).

SMILES | HNF4A DNA FP | ALR inh | RanGTP-Imp inh | Vif A3G | B2AR ag | Calb FLC | LANA-H2B inh
CN(C)c1cccc(C(=O)NCCCSc2ccccc2)c1 | 1.3 | 20 | 0.3 | . | 6 | -11 | 0.0
O=C(NCc1ccccc1)c1ccc(CS(=O)(=O)Cc2ccc(F)cc2)o1 | -0.9 | -1 | -3.9 | . | 3 | -2 | 1.7
O=C(NCc1ccc2c(c1)OCO2)c1cc(-c2ccccc2Cl)on1 | 11 | -7 | 0.4 | -1% | -1 | -25 | 0.2
Cc1c(Cl)cccc1N1C(=O)C(N2C(=O)c3cccc([N+](=O)[O-])c3C2=O)C1c1cccs1 (centres undefined) | -0.5 | -5 | -2.3 | -1% | 52* | ? | -4.5
CNC(=O)c1cc(Cl)c(OC)c(OC)c1 | -1.3 | 1 | ? | 6% | 3 | -2 | -12
CCC(CO)Nc1ncnc2onc(-c3ccc(F)cc3)c12 (centres undefined) | -1.3 | -13 | 3.3 | -13% | -3 | -4 | 16
CCN(CC(=O)Nc1ccccc1OC)C(=O)CN1C(=O)NC2(CCCC2)C1=O | -3.4 | -8 | ? | -4% | 3 | -1 | -2.3
CC(=O)N1CCc2cc(S(=O)(=O)CCC(=O)O)ccc21 | -0.3 | 0 | 9.3 | 17% | -7 | 0 | -8.0
CSCCC1NC(=S)N(Cc2ccccc2)C1=O (centres undefined) | -3.6 | -2 | 0.2 | 2% | 2 | 1 | 1.1
COc1ccc(-c2c(-c3ccsc3)oc3ccc(N4CCOCC4)cc23)cn1 | -1.0 | -16 | 0.8 | . | 4 | 8 | 0.7
CS(=O)(=O)N1CCc2cc(C(=O)N3CCCCC3)ccc21 | 1.3 | -16 | -2.0 | 14% | -2 | -2 | 5.4
Cc1cc(C)cc(Oc2nc3c(C)cccn3c(=O)c2/C=C(\C#N)C(=O)NC2CCS(=O)(=O)C2)c1 (centres undefined) | -0.7 | 1 | . | . | 15 | . | 19*
CCc1ccccc1NC(=O)C1CCCN1C(=O)NCc1ccccc1 (centres undefined) | 2.4 | 2 | -0.8 | . | -6 | -4 | 1.4
COc1ccc(CCN(C)C(=O)CSc2nccn2C)cc1OC | -0.3 | -1 | . | 0% | -6 | -12 | -4.1
CCC(OC(=O)C(C)N1C(=O)C(=O)c2ccccc21)C(=O)Nc1ccccc1OC (centres undefined) | -1.0 | . | -3.3 | 9% | 8 | -7 | .
CCc1ccc(NC(=O)C(C)OC(=O)c2ccc(-n3cnnn3)cc2)cc1 (centres undefined) | -0.4 | -2 | -2.8 | -4% | -8 | 3 | 2.3
COc1ccc(-c2nn(-c3ccccc3)cc2/C=C(\C#N)C(N)=O)cc1[N+](=O)[O-] | -1.2 | 4 | -0.7 | 0% | 10 | -10 | -4.8
CC(C)(C)NC(=O)NC(=O)COC(=O)Cc1c(F)cccc1Cl | 1.5 | 2 | -5.6 | -7% | 0 | -34 | -2.5
COc1ccc(Nc2nc(CN3CCOCC3)nc3sc4c(c23)CCC(C)C4)cc1OC (centres undefined) | . | -11 | 6.1 | -2% | . | 0 | -0.1
Cc1ccc(S(=O)(=O)c2nc(S(C)(=O)=O)sc2N2CCCCC2C)cc1 (centres undefined) | -0.1 | 0 | 4.7 | . | -1 | -1 | 0.3

Filtered by structure: those above containing two or more sulfur atoms
SMILES | HNF4A DNA FP | ALR inh | RanGTP-Imp inh | Vif A3G | B2AR ag | Calb FLC | LANA-H2B inh
CSCCC1NC(=S)N(Cc2ccccc2)C1=O (centres undefined) | -3.6 | -2 | 0.2 | 2% | 2 | 1 | 1.1
Cc1ccc(S(=O)(=O)c2nc(S(C)(=O)=O)sc2N2CCCCC2C)cc1 (centres undefined) | -0.1 | 0 | 4.7 | . | -1 | -1 | 0.3

Remaining list, next part.
SMILES | HNF4A DNA FP | ALR inh | RanGTP-Imp inh | Vif A3G | B2AR ag | Calb FLC | LANA-H2B inh
CC(=O)NCCC(=O)NCc1ccc(F)cc1 | -5.0 | -4 | 13 | 70% | 2 | 7 | -0.4
Cc1ccc(N(C(C)C(=O)N2CCCC2)S(C)(=O)=O)cc1 (centres undefined) | -2.4 | 0 | 2.5 | . | -3 | -1 | 1.1
O=C1CC(N2CCN(c3ccc(F)cc3)CC2)C(=O)N1Cc1ccc(N2CCCC2=O)cc1 (centres undefined) | 0.5 | . | -1.7 | -3% | -8 | 6 | .
Cc1nc2nc(Cc3ccccc3)[nH]n2c(=O)c1Cl | 1.8 | . | 3.4 | 0% | -4 | -5 | 13
COc1ccc(C(=O)CSc2nnc(Cn3nnc4ccccc43)n2C)cc1 | -0.2 | 28 | 1.1 | 6% | 8 | 3 | 4.5
Cc1nn(C)cc1CN1CCCC(C(=O)c2ccc(-c3ccccc3)c(F)c2)C1 (centres undefined) | -2.8 | -13 | 3.0 | -12% | 2 | -12 | -1.4
CN(C(=O)CCCN1CCCC1=O)C1CCCN(Cc2ccccc2F)C1 (centres undefined) | 2.1 | . | -3.9 | . | 1 | 9 | .
CCC(NC(=O)CCc1c(C)c2cc3c(-c4ccccc4)coc3cc2oc1=O)C(=O)O (centres undefined) | 14 | -3 | ? | 0% | -1 | 6 | 1.3
O=C(O)c1cc(-c2ccc(Cl)cc2)n(-c2ccc(Cl)cc2)n1 | 3.0 | 8 | -2.1 | -5% | -3 | 6 | 0.3
CCC(=O)Nc1c2c(nc3c1CCC3)CCCC2 | -1.2 | -2 | 1.3 | ? | -6 | 35 | -1.5
Cn1nc(-c2ccc(Cl)cc2)cc1NC(=O)CCCC(=O)O | 1.6 | -2 | 3.2 | -1% | 2 | -3 | 1.4
O=C1/C(=N/n2cnnc2)c2ccccc2N1Cc1ccccc1 | . | 30 | 1.1 | 2% | . | -13 | 4.5
O=C1CC(C(=O)O)C(c2ccccc2)c2ccccc21 (centres undefined) | -2.7 | . | . | -3% | 2 | . | .
Cc1ccc(NS(=O)(=O)c2cc(C(=O)N3CCc4ccccc4C3)ccc2Cl)cc1 | 0.2 | . | 0.6 | -4% | 2 | -45 | -1.4
CCN(CC)S(=O)(=O)c1cc(C(=O)NC2CCCCC2)ccc1C | 1.9 | -4 | 0.3 | 8% | -10 | -3 | -1.2
Clc1ccc(-n2ncc3c(NCc4cccnc4)ncnc32)cc1Cl | -3.7 | . | 1.6 | -7% | -5 | -10 | 0.4
COc1ccc(-c2nc(CN3CCCCC3CCc3ccccn3)c(C)o2)cc1 (centres undefined) | 0.8 | -4 | -1.6 | 10% | -5 | -18 | 2.8
CCOC(=O)N1CCN(C(=O)CSCC(=O)N=c2sc3ccccc3n2C)CC1 | -1.4 | -4 | -2.7 | 2% | -7 | 6 | 1.0
Cc1ccc(Nc2nc(-c3ccccc3)c(CC(=O)O)s2)cc1 | 0.1 | 0 | -0.5 | -2% | 11 | 11 | 3.1
O=C(CCCN1C(=O)c2ccccc2C1=O)NCC1CCCO1 (centres undefined) | 4.1 | -9 | -0.8 | 73% | -2 | ? | -2.1
CNC(=O)Cn1c(C)cc(=O)c2cccc(OC)c21 | -2.5 | -6 | -0.2 | . | 4 | 2 | 3.0
Cc1ccc2c(C)c(C(=O)Nc3nnc(C)s3)oc2c1 | 0.7 | -9 | 2.0 | 13% | 0 | -6 | 10
Cc1cc(NC(=O)CCC(=O)N(CC(=O)NCC2CCCO2)c2ccc3c(c2)OCCO3)no1 (centres undefined) | -2.4 | . | -1.1 | 14% | 4 | 13 | 6.9
O=[N+]([O-])c1ccccc1OCCOc1ccccc1[N+](=O)[O-] | -2.2 | -29 | 2.4 | -13% | -4 | 39 | 6.6
Cc1cc(Cl)ccc1OCCCC(=O)NCCCn1ccnc1 | 1.8 | -1 | 6.8 | 2% | -2 | 5 | -5.7
COc1ccc(N2CC(C(=O)N[C@@H](C)C(=O)N3CCCCC3)CC2=O)cc1 (some centres undefined) | -0.9 | -2 | -1.3 | . | -5 | -2 | -1.1
CCNC(=S)N/N=C/c1cccc(OCc2c(F)cccc2Cl)c1 | 1.3 | -5 | -1.0 | 8% | 3 | 11 | -2.8
Cc1ccc(OCC(=O)Nc2nc(C)c(Cl)cc2Cl)c([N+](=O)[O-])n1 | -6.5 | -7 | . | 4% | -6 | . | -1.1
C[C@]12CC[C@H](O)CC1=CCC1C2CC[C@@]2(C)C1CC[C@@H]2NC(=O)[C@@H](N)CO (some centres undefined) | 3.2 | . | . | 0% | 7 | . | .
O=C(O)CCCC(=O)Nc1cccc(C(F)(F)F)c1 | 4.1 | -1 | 1.6 | 16% | -2 | 2 | 2.8
COc1cccc(-c2cc(C(=O)Nc3cc(OC)c(OC)c(OC)c3)no2)c1 | 3.0 | 66 | . | -3% | 7 | 18 | -0.9
Cc1nc(C)c(C(=O)Nc2nc3c(C)cccc3s2)o1 | -13 | 10 | -4.1 | 32µM* | 0 | 3 | 0.8
O=C(CSc1cccc[n+]1[O-])N1CCc2ccccc21 | -2.8 | . | 1.6 | 4% | -5 | 23 | 2.1
CCC(=O)c1ccc(OCC(=O)N(CC)CC(=O)Nc2ccccc2OC)cc1 | 0.6 | . | . | -6% | -6 | . | 0.0
C[C@H](CO)N1C[C@H](C)[C@@H](CN(C)S(=O)(=O)c2ccccc2)Oc2c(NC(=O)c3ccncc3)cccc2C1=O | 1.9 | 2 | . | . | 3 | . | -1.9
O=C(O)c1ccc(NCc2ccc3c(c2)OCO3)cc1 | -0.4 | -7 | ? | 4% | 3 | 12 | -1.8
CSCCC(NC(=O)c1ccc(Cl)cc1Cl)C(=O)NCc1ccncc1 (centres undefined) | -5.8 | -1 | -4.1 | 4% | 3 | -8 | 1.8
CCN(C(=O)COC(=O)c1cc(-c2cccs2)nc2ccccc12)C1CCS(=O)(=O)C1 (centres undefined) | 2.0 | 0 | 3.6 | -7% | -6 | 8 | 0.3
Fc1ccc(N/N=C/c2cccnc2)c(F)c1 | -2.5 | 54 | 8.5 | . | 6 | 112* | -3.8
Cc1cc(C)c(OCC(=O)NCC2COc3ccccc3O2)c(C)c1 (centres undefined) | 0.9 | . | . | . | -11 | . | -8.5
CC(/C=N/NC(=O)c1nnn(-c2nonc2N)c1CN1CCCCC1)c1ccccc1 (centres undefined) | 0.7 | -5 | 2.8 | . | -13 | 8 | 4.3
COc1ccccc1NS(=O)(=O)c1cc(NC(=O)C2CC2)ccc1N1CCOCC1 | . | -7 | -19 | . | . | -3 | -3.8
Cc1ccc(C)c(NC(=O)CN(C)C(=O)c2cccc(N3C(=O)CCC3=O)c2)c1 | -0.5 | 2 | -3.0 | -1% | -4 | 1 | 6.2
COc1ccc(/C(O)=C2\C(=O)C(=O)N(c3cc(C)on3)C2c2cccc(OC)c2OC)cc1C (centres undefined) | -0.2 | 10 | 4.3 | 27% | 2 | 4 | 1.7
COc1ccc(CCNC(=O)CCCc2ccccc2)cc1 | 1.7 | -6 | -0.1 | . | 5 | 5 | 5.2
CC(=O)NCc1nnc2c3ccccc3c(-c3ccccc3)nn12 | -3.6 | -17 | 2.6 | 5% | -13 | 6 | 5.6
O=C(CSc1nnnn1-c1ccccc1)N1CCc2ccccc21 | -0.4 | -7 | -0.3 | 9% | -15 | 0 | 3.4
COC(=O)c1cc2c(C)cc3ccc(C)cn3c-2c1C(=O)OC | -23 | . | ? | -7% | 1 | ? | 3.7
